# Assay outcomes: PubChem BioAssay, several laboratories
# Vif TR-FRET – HIV-1 Vif–A3G interaction blockers – biochemical, TR-FRET, GST-Vif 1-94, biotin-A3G peptide, dose response retest, primary screen (AID 1117319) | inhibition, %; hits with a dose series show IC50 in µM | TR-FRET GST-Vif / biotin-A3G peptide binding; higher % means a stronger effect; test concentration not given here; strong numbers were not always called active | actives 0.57% (n = 260,000);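 active means above the screen mean plus three standard deviations and confirmed in dose response; inconclusive means results disagree or hit not tested in dose response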;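 further: Vif residues 1-94 fused to GST binding biotinylated APOBEC3G peptide 110-148; 0% = full assay without inhibitor and 100% = GST in place of GST-Vif; retest series ran down from 100 µM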
# LANA-H2A inh – blocks KSHV LANA binding to histone H2A/H2B. Q9QR71. cell-free LANA-H2A/H2B peptide, fluorescence polarization. inhibition, % (no concentration beside the values). actives 0.6% (n = 320,000); in the data active means inhibition mostly above about 10%, no sharp cut-off; inactive means mostly below about 6.7%;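 further: stock transfer was 7.5 nL into about 10 µL; 0% = median of vehicle wells and 100% = median of positive control wells; one replicate is shown; the record names a cut of 25% in any replicate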
# Target sequence (Q9QR71 whole entry, looked up): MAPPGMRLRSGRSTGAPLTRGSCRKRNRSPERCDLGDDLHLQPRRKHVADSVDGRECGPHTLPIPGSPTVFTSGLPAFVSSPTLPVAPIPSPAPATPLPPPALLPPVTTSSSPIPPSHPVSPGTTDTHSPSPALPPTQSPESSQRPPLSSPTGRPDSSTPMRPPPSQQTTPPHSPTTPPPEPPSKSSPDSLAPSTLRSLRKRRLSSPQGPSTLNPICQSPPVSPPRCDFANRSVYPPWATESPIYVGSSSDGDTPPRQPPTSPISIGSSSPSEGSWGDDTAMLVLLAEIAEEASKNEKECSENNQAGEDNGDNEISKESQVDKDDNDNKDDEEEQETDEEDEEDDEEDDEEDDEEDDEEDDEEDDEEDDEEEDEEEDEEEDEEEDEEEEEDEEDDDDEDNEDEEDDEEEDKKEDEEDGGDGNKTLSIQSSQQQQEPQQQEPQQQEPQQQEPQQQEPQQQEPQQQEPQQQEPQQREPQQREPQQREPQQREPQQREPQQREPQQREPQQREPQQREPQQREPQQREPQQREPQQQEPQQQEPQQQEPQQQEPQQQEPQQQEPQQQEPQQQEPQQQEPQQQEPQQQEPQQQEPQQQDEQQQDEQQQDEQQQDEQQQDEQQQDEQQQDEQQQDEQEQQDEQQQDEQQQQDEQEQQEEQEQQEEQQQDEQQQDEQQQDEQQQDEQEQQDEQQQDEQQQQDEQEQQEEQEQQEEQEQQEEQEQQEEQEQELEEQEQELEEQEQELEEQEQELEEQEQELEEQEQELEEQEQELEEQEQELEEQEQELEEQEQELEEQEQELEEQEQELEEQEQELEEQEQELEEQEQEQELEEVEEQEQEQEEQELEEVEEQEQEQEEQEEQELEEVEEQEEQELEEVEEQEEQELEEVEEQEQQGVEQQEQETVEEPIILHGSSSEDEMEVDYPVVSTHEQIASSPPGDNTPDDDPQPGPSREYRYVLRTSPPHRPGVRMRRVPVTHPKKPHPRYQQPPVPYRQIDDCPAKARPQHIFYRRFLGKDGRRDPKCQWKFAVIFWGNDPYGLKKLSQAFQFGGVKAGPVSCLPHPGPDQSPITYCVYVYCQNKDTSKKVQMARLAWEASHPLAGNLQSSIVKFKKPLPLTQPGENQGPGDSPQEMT
# UCH37 inh – human UCH37 deubiquitinating enzyme inhibition; Q9Y5K5; purified proteasome/UCH37, Ub-AMC cleavage fluorescence; inhibition, % (test concentration not listed); actives 0.33% (n = 330,000);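 active means mean of two replicates above 20%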;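 further: 0% = compound-free wells with enzyme and 100% = wells lacking proteasome; stock transfer was 100 nL into about 20 µL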
#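 Material: Human UCH37 enzyme supplied as purified proteasome complex | Schedule: 30 min preincubation with enzyme, 25 min cleavage at room temperature | Detection: AMC fluorescence 355/460 nm | Measure: % inhibition of Ub-AMC cleavage fluorescence | Controls: Wells without proteasome as full block, compound-free enzyme plus substrate as uninhibited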
# Beta2AR agonist – human beta-2 adrenergic receptor agonism by FAP | Am2.2-beta2AR cells, FAP receptor internalization, flow cytometry; reference of the scale not given here | response, % (no concentration beside the values) | AID 504454 | actives 0.43% (n = 340,000) | P07550;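 active means response above a set limit, near 3 SD of response in nonfluorescent compounds, cut at about 42% in these data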;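 further: stock transfer was 100 nL into about 11 µL; a reference agonist was the positive control; negative values mostly stem from fluorescent compounds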
# Bfl-1 A1 inh – inhibitors of the anti-apoptotic protein A1, read as caspase activation. MEF A1-2A-BIM cells, Caspase-Glo 3/7 luminescence, 3 h; percent of clofoctol response, vehicle zero. actives 0.066% (n = 330,000). caspase activation, % (concentration not given with the values). AID 2462;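 active means over half of replicate activation scores above 10%, or exactly half above 10 with the replicate mean above 10; inconclusive means replicate mean below 10 yet half the replicates above 10; inactive means over half of replicates below 10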;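 further: wells of about 30 µL received 50 nL stock; many hits fall short of the cut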
# E coli growth – inhibitors of Escherichia coli growth. OD600, 23 h; stronger effect = lower value. OD600 absorbance (concentration not given with the values). actives 0.21% (n = 330,000). AID 1053175;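 active means OD600 absorbance below the run mean of sample wells minus 3.6 SD, in any replicate, cut at about 0.56 in these data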;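 further: stock transfer was 300 nL into about 60 µL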
# HNF4A DNA FP – change in binding of human HNF4 alpha to DNA. HNF4a-FITC DNA binding, fluorescence polarization, 1 h. P41235. activity change, % at 10 µM. actives 0.3% (n = 360,000). AID 1224865; in the data active means activity change above about 30%, passing the limit was not always enough;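 further: controls were the assay level and a saturating level of protein; the project sought stronger binding though the title names inhibitors; some compounds called inactive have numbers as strong as hits; positive values seem to mean higher polarization but the record does not say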
# An asterisk follows results filed as active; i = inactive; ? = inconclusive; nt = no result given.
SMILES,Vif TR-FRET,LANA-H2A inh,UCH37 inh,Beta2AR agonist,Bfl-1 A1 inh,E coli growth,HNF4A DNA FP
CCCn1c(/C=C/c2cc[n+](C)cc2)nc2ccccc21,-3%,-0.4,-145,-6,-0.7,0.67,2.9
O=C(Nc1sc2c(c1C(=O)O)CCCCC2)c1ccccc1F,8%,4.0,9.2,-10,-5.9,0.69,0.3
O=C(O)c1cccc(NC(=O)c2cccc(S(=O)(=O)N3CCc4ccccc43)c2)c1,nt,10,0.8,1,-2.6,0.64,-1.0
O=C(CCCCC(=O)NCc1cccs1)NCc1cccs1,-8%,0.2,0.5,-2,-0.1,0.75,0.8
Cc1ccc(F)cc1NC(=O)CSc1nnc(CNC(=O)c2ccco2)n1C,7%,-0.8,1.4,-2,0.2,0.69,1.5
Cc1ccc(CN2CCNC(=O)C2CC(=O)N(C)CCc2ccccc2)cc1 (stereo unspecified),22%,-3.5,2.8,2,0.2,0.69,0.1
CCCCN(C(=O)Cc1ccc(S(=O)(=O)N2CCOCC2)s1)c1c(N)n(CC(C)C)c(=O)[nH]c1=O,6%,nt,-28,10,nt,0.64,0.3
O=c1[nH]c2ccc(NC(=S)NC3CCCCC3)cc2[nH]1,?,-0.6,1.3,-14,0.2,0.67,4.0
COc1ccccc1/C=C(\NC(=O)c1cccc(C)c1)C(=O)Nc1ccccn1,19%,-4.5,-22,7,0.4,0.66,0.1
CCc1ccc(OCC(=O)OCC(=O)NC2CCCC(C)C2C)cc1 (stereo unspecified),-9%,3.3,1.3,-2,-0.5,0.72,6.5
Cc1cc(C)cc(NC(=O)COC(=O)c2n[nH]c3ccccc23)c1,-6%,5.2,6.0,3,0.5,0.7,-2.7
CC1CCN(c2ccc(C(=O)NCc3cccs3)cn2)CC1,-2%,3.2,2.7,0,-1.2,0.69,-0.9
COC(=O)C1(C(=O)OC)NOC2C(=O)N(c3ccccc3)C(=O)C21 (stereo unspecified),68%,0.4,0.4,-4,0.5,0.73,1.9
COc1ccc(CNS(=O)(=O)c2cc3c(cc2C)N(C)CCO3)cc1,nt,2.2,2.1,1,0.5,0.74,-5.6
COc1cc(CCC(=O)OCC(=O)N(CCC#N)c2ccccc2)cc(OC)c1OC,nt,7.6,2.9,-5,0.7,0.63,-4.2

# Among those listed so far, these contain a COOH group.
SMILES,Vif TR-FRET,LANA-H2A inh,UCH37 inh,Beta2AR agonist,Bfl-1 A1 inh,E coli growth,HNF4A DNA FP
O=C(Nc1sc2c(c1C(=O)O)CCCCC2)c1ccccc1F,8%,4.0,9.2,-10,-5.9,0.69,0.3
O=C(O)c1cccc(NC(=O)c2cccc(S(=O)(=O)N3CCc4ccccc43)c2)c1,nt,10,0.8,1,-2.6,0.64,-1.0

# The listing continues:
SMILES,Vif TR-FRET,LANA-H2A inh,UCH37 inh,Beta2AR agonist,Bfl-1 A1 inh,E coli growth,HNF4A DNA FP
CCOc1ccc(NC(=O)C(CC(=O)O)Cc2ccc(C)cc2)cc1 (stereo unspecified),nt,-6.0,1.6,4,-0.6,0.65,3.3
CCOC(=O)N1CCN(S(=O)(=O)CCNC(=O)c2ccc(OC)cc2)CC1,3%,0.1,-0.4,-1,-0.6,0.63,1.9
CC(C)NS(=O)(=O)c1ccc(NC(=O)C(C)Oc2ccc(C(=O)c3ccccc3)cc2)cc1 (stereo unspecified),-6%,-0.9,5.1,0,-0.6,0.71,2.0
COC(=O)CNC(=O)C(C)NC(=O)OCc1ccccc1 (stereo unspecified),4%,0.0,5.1,4,0.3,0.73,2.1
COc1ccc2c(c1)c(C(O)CN1CCN(Cc3ccc4c(c3)OCO4)CC1)c(C)n2C (stereo unspecified),4%,5.2,-0.3,13,0.6,0.72,-3.0
O=C(NC(Cc1ccccc1)C(=O)O)/C(=C\c1ccc(Br)cc1)NC(=O)c1ccc(Br)o1 (stereo unspecified),nt,2.3,2.7,-1,-0.2,0.66,-2.5
CC(NC(=O)c1ccc(F)cc1Cl)C1CC2CCC1C2 (stereo unspecified),nt,0.2,4.1,-7,0.7,0.7,2.0
COc1cc(Br)c(C2CC(=O)Nc3cc(OC)c(OC)cc32)cc1OC (stereo unspecified),nt,1.5,2.5,3,1.3,0.67,1.2
O=C1NC(=O)C(c2cn(-c3ccccc3)nc2-c2ccc(F)cc2)N1 (stereo unspecified),26%,-0.5,3.2,0,3.0,0.72,0.5
O=C(Nc1nc(-c2ccc3c(c2)OCCO3)cs1)c1ccc(S(=O)(=O)N2CCCCC2)cc1,-40%,-3.4,-7.4,7,0.4,0.72,2.6
CCc1nc(Nc2ccc3c(c2)OCCO3)c2oc3ccccc3c2n1,-2%,3.8,-56,39,nt,0.66,1.7
O=C(O)/C=C/C(=O)c1ccc2c(c1)NC(=O)CO2,-3%,4.6,4.6,8,0.5,0.71,5.4
O=C(COc1ccccc1)Nc1ccc2c(c1)C(=O)N(CC1CCCO1)C2=O (stereo unspecified),3%,-3.7,nt,-3,-0.9,nt,-0.1
COc1cc(OC)cc(-c2c(-c3cccs3)c3cc(-c4cnc(OC)nc4)ccc3n2C)c1,nt,-4.7,-0.3,-5,-0.4,0.85,-1.8
CN(Cc1ccon1)Cc1cn(C)nc1-c1cccc(Cl)c1,nt,-2.9,0.7,-5,0.0,0.69,0.0
C/C(=N\O)C(C)(C)Nc1cccc(Br)c1,-10%,-0.2,nt,-11,0.3,nt,-3.0
FC(F)(F)c1cnc(Oc2cccc3ccccc23)c(Cl)c1,13%,-3.7,-1.6,0,-0.4,0.72,2.0
CCC(O)(CC)C(=O)N/N=C/c1cc(Br)cc(Br)c1O,-20%,3.8,nt,7,0.1,nt,-2.9
Cc1ccc(OCC(=O)Nc2ccc(Cl)cc2)c([N+](=O)[O-])n1,4%,3.9,0.2,-2,-0.2,0.64,5.5
CCN(CC)CCCC(C)NC(=O)c1cc(=O)c2ccccc2o1 (stereo unspecified),?,0.7,2.2,-4,0.2,0.72,-1.0
O=C(Cc1coc2ccc3ccccc3c12)Nc1nccs1,-11%,-6.1,-3.6,14,-0.2,0.66,-2.6
CCOC(=O)c1ccc(NC(=S)NN2CCN(C)CC2)cc1,nt,-1.9,2.3,-4,?,0.69,3.0
CCOC(=O)N1CCN(C(=O)c2ccc(S(=O)(=O)Nc3ccc(C)cc3)cc2)CC1,-2%,-4.5,1.8,-3,-0.7,0.65,-0.9
COC(=O)c1ccccc1S(=O)(=O)N1CCC(C(=O)OCC(=O)NCC(F)(F)F)CC1,3%,-2.7,1.9,1,-0.6,0.7,0.1
COc1cccc(NC(=O)CN2C(=O)NC(C)(C3CC3)C2=O)c1 (stereo unspecified),nt,-1.4,-0.1,-1,0.9,0.68,-3.7
C/C=C\C=C/C(=O)Nc1cccc(C2=NOC3(C2)C[C@H](C(N)=O)N(C(=O)CC)C3)c1 (stereo partly specified),3%,0.4,3.9,-7,-0.3,0.78,2.6
Cc1ccc(NC(=O)C2CCC2)cc1S(=O)(=O)N1CCCCCC1,1%,0.6,0.8,-7,0.2,0.7,1.1
O=C(c1ccc(NS(=O)(=O)c2cccc(F)c2)cc1)N1CCCCC1,nt,-1.8,2.5,3,-0.2,0.67,7.6
Cc1c(S(=O)(=O)c2ccccn2)c(N)n(Cc2ccccc2Cl)c1C,12%,1.4,2.2,16,-0.4,0.68,7.4
CN(/N=C/c1ccc(Cl)cc1Cl)c1ncc(Cl)cc1C(F)(F)F,-4%,1.0,nt,-1,0.3,nt,-0.3
COc1ccc(OC)c(-c2cc(C3CCN(c4ncccc4[N+](=O)[O-])CC3)[nH]n2)c1,4%,2.2,6.6,13,1.2,0.74,0.1
CCOCC(=O)Nc1cc(C(=O)OC)ccc1C(=O)OC,-1%,-0.1,-29,-1,-0.8,0.74,-0.2
COc1cc(OC)cc(-c2c(-c3cccs3)c3cc(-c4ccc5cc[nH]c5c4)ccc3n2C)c1,nt,-1.5,5.2,-6,-0.4,0.83,4.9
CCN(CC(=O)Nc1ccc2c(c1)OCCO2)C(=O)c1ccccc1Br,nt,-0.7,1.2,5,-1.7,0.69,-2.1
CCSc1nc2c(c(=O)[nH]1)C(C(C)C)C(C#N)=C(N)O2 (stereo unspecified),5%,4.5,1.1,4,-0.1,0.68,-2.5
Cc1ccc(S(=O)(=O)N2CCCC2C(=O)NCc2ccc3c(c2)OCO3)cc1 (stereo unspecified),4%,2.1,-0.2,13,0.6,0.66,0.7
O=C(NCCOc1ccccc1)C1Nc2ccc(C(F)(F)F)cc2C2c3ccccc3CC12 (stereo unspecified),nt,2.5,-0.7,-2,-0.3,0.72,0.8
CN(Cc1ccccc1)C(=O)CCNS(=O)(=O)c1ccc2c(c1)oc(=O)n2C,7%,4.5,0.6,-9,0.7,0.71,-3.3
C=CCc1cccc(/C=N/c2nc3ccccc3n2CC)c1O,3%,8.0,nt,-2,1.5,nt,-0.6
Cc1csc(-c2cnn(-c3ccccc3)c2NC(=O)c2cccc(C(F)(F)F)c2)n1,-7%,1.2,3.2,-5,-1.3,0.72,2.0
O=C(Nc1nnc(-c2ccccc2F)s1)c1cccnc1,1%,-3.2,5.6,-5,-2.5,0.67,3.5
Cc1ccc(C(=O)Nc2cccc(N3C(=O)C4CCC(C)CC4C3=O)c2)cc1 (stereo unspecified),nt,0.0,-0.6,12,-1.6,0.7,0.4
CN(C)c1ccc(NC(=O)CCN2CCN(c3ccccn3)CC2)cc1,0%,3.3,5.1,-1,0.2,0.65,2.3
CCOc1ncccc1C(=O)OCc1cccc([N+](=O)[O-])c1,16%,2.1,-0.4,-9,0.8,0.71,-0.7
CSc1nc(-c2ccccc2)cc(C(F)(F)F)c1C#N,nt,-2.7,-14,-5,1.6,0.73,2.6

# Structures listed so far with two or more sulfur atoms (3):
SMILES,Vif TR-FRET,LANA-H2A inh,UCH37 inh,Beta2AR agonist,Bfl-1 A1 inh,E coli growth,HNF4A DNA FP
O=C(CCCCC(=O)NCc1cccs1)NCc1cccs1,-8%,0.2,0.5,-2,-0.1,0.75,0.8
CCCCN(C(=O)Cc1ccc(S(=O)(=O)N2CCOCC2)s1)c1c(N)n(CC(C)C)c(=O)[nH]c1=O,6%,nt,-28,10,nt,0.64,0.3
O=C(Nc1nc(-c2ccc3c(c2)OCCO3)cs1)c1ccc(S(=O)(=O)N2CCCCC2)cc1,-40%,-3.4,-7.4,7,0.4,0.72,2.6

# Next entries follow.
SMILES,Vif TR-FRET,LANA-H2A inh,UCH37 inh,Beta2AR agonist,Bfl-1 A1 inh,E coli growth,HNF4A DNA FP
Cc1cccc(-c2nnc(SCC#N)n2Cc2ccccc2)c1,6%,1.4,-0.7,7,0.4,0.67,-1.4
O=C(N/N=C1/CCS(=O)(=O)c2ccc(F)cc21)c1cccnc1,0%,0.0,nt,-2,0.3,nt,-6.8
O=C(CCCc1ccccc1)N=C1SC2CS(=O)(=O)CC2N1c1ccccc1 (stereo unspecified),nt,0.5,1.4,-1,1.4,0.71,7.1
CCOC(=O)N1CCN(CC(=O)n2c(C)c(C)c3ccccc32)CC1,26%,-2.4,5.7,0,-0.9,0.73,4.9
CCOc1cccc2cc(-c3csc(NC(=O)CCC(=O)N4CCC(C)CC4)n3)c(=O)oc12,0%,0.9,i,-8,-0.6,0.7,0.6
COc1ccc(-c2csc(C)n2)cc1OC,-2%,2.6,3.3,7,-0.3,0.74,-1.8
O=C(NC(NC(=S)Nc1ccc(Cl)cc1)C(Cl)(Cl)Cl)c1ccco1 (stereo unspecified),?,-2.0,nt,7,0.3,nt,-1.1
Cn1c(=O)c([N+](=O)[O-])c(NC2CCS(=O)(=O)C2)c2ccccc21 (stereo unspecified),-2%,2.2,5.4,-3,0.0,0.7,1.5
O=C(Nc1cc(C(=O)N2CCCC2)ccc1N1CCCC1)c1ccccc1F,0%,-1.6,1.2,30,-0.1,0.75,0.6
CCc1cc(C)c(O)c(CC)n1,2%,0.7,6.1,5,-0.2,0.71,-2.0
